GIV-Gai inh – blocks GIV peptide binding to rat Galpha-i3; P08753; Galpha-i3/FITC-GIV peptide fluorescence polarization, 90 min; stronger effect = lower value; scaled: aluminum fluoride 0%, vehicle 100%; percent of control (FP), % (test concentration not listed); hit rate 0.42% among 210,000; AID 1224905;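 active means replicate mean at 85% of control or lower, very high polarization wells dropped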;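 further: wells of about 15 µL received 100 nL stock; the first replicate is given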
Target sequence (P08753 whole entry, looked up): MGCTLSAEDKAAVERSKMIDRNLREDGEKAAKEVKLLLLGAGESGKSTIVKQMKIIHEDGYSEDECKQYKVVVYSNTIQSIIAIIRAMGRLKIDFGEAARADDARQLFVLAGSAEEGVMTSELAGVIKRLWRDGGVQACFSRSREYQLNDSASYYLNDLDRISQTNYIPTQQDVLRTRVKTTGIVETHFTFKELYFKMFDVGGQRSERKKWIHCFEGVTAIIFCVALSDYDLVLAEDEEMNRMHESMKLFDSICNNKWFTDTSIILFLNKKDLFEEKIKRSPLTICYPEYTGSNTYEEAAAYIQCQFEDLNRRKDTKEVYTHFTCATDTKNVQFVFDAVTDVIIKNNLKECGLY
Sa growth 42C – blocks Staphylococcus aureus growth; hit rate 0.53% among 170,000; relative growth, % (test concentration not listed); S. aureus RN4220 growth, OD600, 20 h, 42 °C; stronger effect = lower value;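 active means growth at 42 °C up to 50% and 20 or more points under that at 30 °C, or under 10% at both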;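 further: 300 nL library stock went into each well; scaled to the means of positive and negative controls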
HCMV UL50-53 inh – cytomegalovirus nuclear egress complex inhibition. inhibition, % (test concentration not listed). HTRF UL50-UL53 interaction, normalized percent inhibition. hit rate 0.15% among 190,000;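 active means both replicates at 50% or more, plus weaker picks with an unusually low signal ratio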;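 further: stock transfer was 100 nL into about 20 µL; 0% = negative control wells and 100% = wells with untagged competitor protein; inactives centre near -12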
Sa growth 42C second temp – recorded beside Sa growth 42C, whose call it bears; relative growth, %; measured here: growth at 30 °C;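 optical density after 20 h as mean of two plates; 100% = untreated growth and lower means inhibition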
An asterisk follows results filed as active; x = no result given.

SMILES	GIV-Gai inh	Sa growth 42C	Sa growth 42C second temp	HCMV UL50-53 inh
COc1ccc(S(=O)(=O)c2c(C)cc(C)n(CC(=O)Nc3cc(F)ccc3F)c2=O)cc1	106	x	x	6
NC1=NC(=O)C(CC(=O)Nc2cccc(C(F)(F)F)c2)S1 (stereo unspecified)	96	101	82	-9
Cc1cc(C(=O)COC(=O)c2ccc(S(=O)(=O)N3CCCCC3)cc2)c(C)n1CC1CCCO1 (stereo unspecified)	x	103	94	-34
CCOc1ccc(N(C(=O)c2ccncc2)S(=O)(=O)c2ccc3c(c2)oc(=O)n3C)cc1	135	x	x	-4
CC1CC(C)CN(C(=O)C(C)Sc2nnc(N)s2)C1 (stereo unspecified)	x	104	93	-4
COc1ccccc1C1=NOC(C(=O)NCCCn2ccnc2)C1 (stereo unspecified)	97	100	86	-31
Cc1ccc(S(=O)(=O)NCCSc2nnnn2-c2ccccc2)cc1	111	119	99	-2
O=C(CSc1nc(-c2ccccc2)c2ccccc2n1)Nc1ccc(F)cc1	97	98	94	-13
CCn1c(Cc2ccccc2)nnc1SCC(=O)N(C)C1CCCCC1	97	99	90	-19
O=C(Nc1ccc(C(F)(F)F)cc1)C1CCc2ccccc2O1 (stereo unspecified)	107	102	102	3
CCOc1ccc(-c2c(C#N)c(N)nc(SCC(=O)OC)c2C#N)cc1	105	x	x	73*
Cc1cc(NC(=O)c2cc(-c3ccc(Cl)cc3)on2)n(-c2ccccc2)n1	104	91	93	-7
CS(=O)(=O)N1CCN(C(=O)Cc2ccc(-c3ccccc3)cc2)CC1	105	117	82	-7
N#Cc1ccccc1N1CCOCC1	103	106	102	3
CCOc1cccc(=O)c2c(C)n(Cc3ccccc3)c(C)c12	125	83	66	-53
COc1ccccc1CNC(=O)CN1C(=O)CSc2c1c(C)nn2-c1ccccc1	100	81	97	x
Cc1cc2cc(C(=O)O)ccc2o1	106	64	94	18
COC(=O)/C(C#N)=C(\C)N	x	87	89	-1
Cc1c(C(=O)NNc2ncnc3sc4c(c23)CCCC4)oc2ccccc12	x	82	80	-26
CCc1cccc(C)c1NC(=O)CCn1nc(C)c2c(C)n(-c3ccccc3)nc2c1=O	105	90	91	x
CCCCn1nc(C(=O)Nc2nc(SC)ns2)ccc1=O	x	98	80	-24
CC(C)NC(=O)c1ccc(COCC(F)(F)F)cc1	103	115	99	-10
CCN(C(=O)c1cnc(N2CCN(c3ncccn3)CC2)c2ccccc12)c1cccc(Cl)c1	102	86	75	x
CCn1c(=O)c(N2CCN(C(=O)C3CCC3)CC2)nc2ccccc21	103	x	x	-63
CCCCc1nnc(NC(=O)c2c(OC)cccc2OC)s1	104	111	91	-2

Next section.
SMILES	GIV-Gai inh	Sa growth 42C	Sa growth 42C second temp	HCMV UL50-53 inh
C/C(=N\NC(=O)c1sc2ccccc2c1Cl)c1ccco1	103	153	101	-43
COCCOC(=O)C1=C(C)NC(=O)NC1c1cn(-c2ccccc2)nc1-c1ccccc1 (stereo unspecified)	108	104	87	-36
CCOc1ccccc1CNC(=O)CCc1cn(C)c2ccccc12	111	108	106	x
Cc1nn(C)c(C)c1CCNC(=O)Nc1ccccc1C(F)(F)F	109	98	93	x
O=C(CSC1=NC(=O)C(Cc2ccccc2)C(=O)N1)Nc1ncc(Br)cc1Br (stereo unspecified)	106	x	x	-12
CCSc1nnc2c(n1)OC1(CCCC1)Nc1ccccc1-2	93	109	88	-26
CC(=O)N1CC(C)=C(C#N)C1O (stereo unspecified)	73*	103	90	2
CC(=O)COc1cc(O)c2c(=O)cc(-c3ccccc3)oc2c1	100	x	x	-16
Cc1cccc(Cn2c(=O)n(Cc3ccccc3)c(=O)c3oc4ccccc4c32)c1	105	97	87	x
CCCCNC(=O)CSc1nc2ccccc2nc1Cc1ccccc1	98	88	91	x
Cc1cc(C(=O)COc2ccc(-n3ccnc3)cc2)c(C)n1-c1ccc2c(c1)OCO2	x	97	51	-9
O=C(NCCc1ccccc1)c1ccccc1CN1C(=O)c2ccccc2C1=O	101	94	85	x
CSc1cccc(N2CC(C(=O)N3CCCCC3C(N)=O)CC2=O)c1 (stereo unspecified)	x	73	92	-24
O=C(Cn1nc2c3ccc(Cl)cc3ncn2c1=O)NC1CCCC1	103	x	x	-18
CCc1ccc(C(=O)c2cn(CC(=O)NC3CCCCC3)c3nc(C)ccc3c2=O)cc1	105	77	92	x
COc1ccc(-c2noc(N3CCC(C(=O)N(C)c4ccccc4)CC3)n2)cc1	99	123	85	x
NS(=O)(=O)c1ccc(CNC(=S)NC2CCCC2)cc1	99	112	87	-13
Cc1ccc(CSc2ncc(Cl)c(C(=O)NCCc3ccc(S(N)(=O)=O)cc3)n2)cc1	100	95	71	-22
CCN(CC)C(=O)Cn1c(=O)nc(-c2ccccc2F)c2cc(Cl)ccc21	104	84	87	x
Cc1ccc(CN2C(=O)COc3cc(NC(=O)c4ccncc4)ccc32)cc1	96	95	86	2
COC(=O)c1cc(OC)c(OC)cc1NC(=O)c1ccc(C)cc1	108	106	81	-6
CCc1nnc(NC(=O)C(CC(C)C)N2C(=O)c3ccccc3C2=O)s1 (stereo unspecified)	102	106	87	x
CCOC(=O)c1c(NC(=O)c2cc3cc(Br)ccc3oc2=O)sc(C(C)=O)c1C	102	x	x	-10
Cc1csc2nc(-c3cccc(NS(C)(=O)=O)c3)cn12	106	99	88	x
O=c1[nH]c2ccc(Cl)cc2c(-c2ccccc2)c1N1CCOCC1	90	78	106	-13

Next part
SMILES	GIV-Gai inh	Sa growth 42C	Sa growth 42C second temp	HCMV UL50-53 inh
CC(NC(=O)c1ccc(-n2ccc3ccccc32)s1)c1ccc2c(c1)OCCO2 (stereo unspecified)	101	92	82	-11
CCCCCOC(=O)c1ccc(Nc2nc(C(=O)OCC)nc3ccccc23)cc1	102	97	89	-22
CCOC(=O)c1ccc(NC(=O)CCn2ccc(C)n2)cc1	101	95	92	x
CCOC(=O)c1cnc(Sc2ccc(F)c(Cl)c2)nc1C(F)(F)F	108	105	104	6
COC(=O)CSc1nc2sc3c(c2c(=O)n1-c1ccccc1)C(C)CCC3 (stereo unspecified)	106	97	90	1
Cc1nn(CC(=O)N(C)C)c(=O)c2ccccc12	101	96	81	-16
C#CCOC(=O)Nc1ccccc1OC	103	90	91	-26
CCc1ncc(C(=O)Nc2cccc(F)c2)c(C)n1	107	x	x	-4
COc1ccc2c(c1)CC(C(=O)Nc1ccc(Br)c(C)c1)CO2 (stereo unspecified)	98	81	92	x
Cc1ccc2c(c1)-c1onc(C(=O)NC3CCCc4ccccc43)c1CO2 (stereo unspecified)	113	99	93	x
Cc1ccc2c(CC(=O)O)coc2c1C	98	103	92	-13
COc1cc(OC)cc(C(=O)c2coc3ccc(O)c(CN4CCOCC4)c23)c1	99	113	64	-6
CN(Cc1ccccc1)S(=O)(=O)c1ccc2c3c(cccc13)C(=O)N2	104	85	75	-16
CCCN1CCC(NC(=S)NC2CCCC2)CC1	107	96	105	0
CN(C)c1nc(N(C)C)nc(N(C#N)S(=O)(=O)c2ccccc2Cl)n1	103	102	102	6
Cc1cn[nH]c1/N=C/C1=C(O)c2ccccc2C1=O	96	85	86	-33
CCC(C(=O)Nc1ccc(C(C)=O)cc1)n1c(C)c2cnn(-c3ccccc3)c(=O)c2c1C (stereo unspecified)	103	117	93	-11
O=C(COC(=O)c1cccc(O)c1)c1ccc(F)cc1	x	91	95	-23
O=S(=O)(N1CCCCC1)N(CCO)Cc1ccccc1	106	110	85	-21
CCOC(=O)c1cc(-c2ccc(OC)c(S(=O)(=O)N3CC(C)CSc4ccccc43)c2)on1 (stereo unspecified)	115	91	94	-8
CCCN1C(=O)S/C(=C\c2cn(CC(=O)N3CCOCC3)c3ccccc23)C1=O	100	87	83	-40
COC(=O)C1=C(CSCc2ccco2)NC(=O)NC1c1ccccc1C (stereo unspecified)	103	87	80	-6
CN(C)S(=O)(=O)c1cccc(CSc2nnc(COc3ccccc3F)n2N)c1	x	95	95	-21
Cc1ccc(NS(=O)(=O)c2c(C)noc2C)c(C)c1	133	x	x	-11
CCCNc1ncccc1-c1nc(-c2ccccc2)no1	98	x	x	-16

21 entries out of the list, ordered by formula weight, highest first:
SMILES	GIV-Gai inh	Sa growth 42C	Sa growth 42C second temp	HCMV UL50-53 inh
CCOC(=O)c1cc(-c2ccc(OC)c(S(=O)(=O)N3CC(C)CSc4ccccc43)c2)on1 (stereo unspecified)	115	91	94	-8
CCC(C(=O)Nc1ccc(C(C)=O)cc1)n1c(C)c2cnn(-c3ccccc3)c(=O)c2c1C (stereo unspecified)	103	117	93	-11
CN(C)S(=O)(=O)c1cccc(CSc2nnc(COc3ccccc3F)n2N)c1	x	95	95	-21
CCCN1C(=O)S/C(=C\c2cn(CC(=O)N3CCOCC3)c3ccccc23)C1=O	100	87	83	-40
CCCCCOC(=O)c1ccc(Nc2nc(C(=O)OCC)nc3ccccc23)cc1	102	97	89	-22
CC(NC(=O)c1ccc(-n2ccc3ccccc32)s1)c1ccc2c(c1)OCCO2 (stereo unspecified)	101	92	82	-11
COC(=O)CSc1nc2sc3c(c2c(=O)n1-c1ccccc1)C(C)CCC3 (stereo unspecified)	106	97	90	1
COc1cc(OC)cc(C(=O)c2coc3ccc(O)c(CN4CCOCC4)c23)c1	99	113	64	-6
CN(C)c1nc(N(C)C)nc(N(C#N)S(=O)(=O)c2ccccc2Cl)n1	103	102	102	6
CCOC(=O)c1cnc(Sc2ccc(F)c(Cl)c2)nc1C(F)(F)F	108	105	104	6
COc1ccc2c(c1)CC(C(=O)Nc1ccc(Br)c(C)c1)CO2 (stereo unspecified)	98	81	92	x
COC(=O)C1=C(CSCc2ccco2)NC(=O)NC1c1ccccc1C (stereo unspecified)	103	87	80	-6
Cc1ccc2c(c1)-c1onc(C(=O)NC3CCCc4ccccc43)c1CO2 (stereo unspecified)	113	99	93	x
CCOC(=O)c1ccc(NC(=O)CCn2ccc(C)n2)cc1	101	95	92	x
O=S(=O)(N1CCCCC1)N(CCO)Cc1ccccc1	106	110	85	-21
Cc1ccc(NS(=O)(=O)c2c(C)noc2C)c(C)c1	133	x	x	-11
O=C(COC(=O)c1cccc(O)c1)c1ccc(F)cc1	x	91	95	-23
CCCN1CCC(NC(=S)NC2CCCC2)CC1	107	96	105	0
Cc1cn[nH]c1/N=C/C1=C(O)c2ccccc2C1=O	96	85	86	-33
Cc1nn(CC(=O)N(C)C)c(=O)c2ccccc12	101	96	81	-16
C#CCOC(=O)Nc1ccccc1OC	103	90	91	-26

At a glance, some entries already given.
SMILES	GIV-Gai inh	Sa growth 42C	Sa growth 42C second temp	HCMV UL50-53 inh
Cc1ccc(NS(=O)(=O)c2c(C)noc2C)c(C)c1	133	x	x	-11
CCCNc1ncccc1-c1nc(-c2ccccc2)no1	98	x	x	-16

(more compounds)
SMILES	GIV-Gai inh	Sa growth 42C	Sa growth 42C second temp	HCMV UL50-53 inh
CCOc1ccc(-c2c(=O)n(O)c3ccccc3[n+]2[O-])cc1	109	101	94	-64
Cc1ccc(NC(=O)Cn2ncn3c(cc4ccccc43)c2=O)c(C)c1	108	105	72	-23
CCOC(=O)c1cc2c(=O)n3ccccc3nc2n(CCCOC)c1=NC(=O)C(C)(C)Oc1ccc(Cl)cc1	120	116	86	-14
Nc1nc(NCc2cccnc2)n[nH]1	106	123	79	-5
c1ccc(N2CCN(c3ccccn3)CC2)nc1	95	74	91	x
CC(=O)OC/C=C(C)/C=C/C=C(C)/C=C/C1=C(C)CCCC1(C)C	109	92	86	-43
Cc1nn(C)c2c1S(=O)(=O)N=C(SCc1c(F)cccc1Cl)S2	105	62	48	15
O=C(CN1CCN(Cc2ccc(F)cc2Cl)C1=O)NC1CCCCC1	100	x	x	-34
CC(=O)N1C(=O)CC(c2ccccc2)Sc2ccccc21 (stereo unspecified)	96	115	100	-5
CCN(c1ccccc1)S(=O)(=O)c1ccc(Oc2ccc3c4c2CCCN4CCC3)nc1	x	114	100	-13
NC(=O)CCNc1ccccc1	x	86	95	-10
CCOC(=O)c1c(C)n(-c2ccccc2)c2c1cc(OC(=O)c1cccc(Cl)c1)c1ccccc12	105	x	x	-21
Cc1nc2c(nc(C)n2-c2ccccc2)s1	x	106	75	-27
Nc1ccc2nsnc2c1	46*	88	50	96*
Cc1ccc(CSc2nc3ccccc3s2)cc1	x	107	105	-2
Cc1ccc2[nH]c3c(c2c1)SC(C)(C)CC3=O	102	111	104	-10
CCNc1nc(N(C#N)CC)nc(N2CCOCC2)n1	96	79	88	6
Cc1ccc(C2CC(=O)n3nc(N)nc3N2)cc1 (stereo unspecified)	100	101	87	x
CCOc1ccc(NC(=O)C2CCN(S(=O)(=O)CC)CC2)cc1	103	96	94	-9
O=C(c1cc2cc(Br)ccc2oc1=O)N1CCSC1c1ccc(Cl)cc1 (stereo unspecified)	106	x	x	-20
CCOc1ccccc1NC(=O)N1c2ccccc2Sc2ccccc21	104	95	85	-31
Cc1nn(CCCC(=O)Nc2ccccc2Cl)c(=O)c2nn(-c3ccccc3)c(C)c12	101	x	x	-9
CCOC(=O)c1ccc(NC(=O)CCC(=O)N2Cc3ccccc3Oc3ncccc32)cc1	100	86	96	x
Cc1cc(C)n2nc(SCc3nc(N)nc(Nc4ccccc4C)n3)nc2n1	x	100	100	-5
CN(C)S(=O)(=O)c1ccc2nc(NC(=O)CN3C(=O)c4ccccc4C3=O)sc2c1	106	x	x	-36

Screening results as filed in PubChem.
